Source: PubChem BioAssay (several laboratories)
CD11b adhes enh – increases human CD11b/CD18 adhesion to fibrinogen | P05107+P11215 | K562 CD11b/CD18 adhesion to fibrinogen, ATPlite luminescence | activation, % at 10 µM | 0.07% of 93,000 active | AID 1499;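 active = 10 µM primary screen giving 50% or more activity, confirmed by 40% or more on retest at that dose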; also: strong numbers were not always called active
Target sequence (P05107 whole entry, looked up, other chains not shown): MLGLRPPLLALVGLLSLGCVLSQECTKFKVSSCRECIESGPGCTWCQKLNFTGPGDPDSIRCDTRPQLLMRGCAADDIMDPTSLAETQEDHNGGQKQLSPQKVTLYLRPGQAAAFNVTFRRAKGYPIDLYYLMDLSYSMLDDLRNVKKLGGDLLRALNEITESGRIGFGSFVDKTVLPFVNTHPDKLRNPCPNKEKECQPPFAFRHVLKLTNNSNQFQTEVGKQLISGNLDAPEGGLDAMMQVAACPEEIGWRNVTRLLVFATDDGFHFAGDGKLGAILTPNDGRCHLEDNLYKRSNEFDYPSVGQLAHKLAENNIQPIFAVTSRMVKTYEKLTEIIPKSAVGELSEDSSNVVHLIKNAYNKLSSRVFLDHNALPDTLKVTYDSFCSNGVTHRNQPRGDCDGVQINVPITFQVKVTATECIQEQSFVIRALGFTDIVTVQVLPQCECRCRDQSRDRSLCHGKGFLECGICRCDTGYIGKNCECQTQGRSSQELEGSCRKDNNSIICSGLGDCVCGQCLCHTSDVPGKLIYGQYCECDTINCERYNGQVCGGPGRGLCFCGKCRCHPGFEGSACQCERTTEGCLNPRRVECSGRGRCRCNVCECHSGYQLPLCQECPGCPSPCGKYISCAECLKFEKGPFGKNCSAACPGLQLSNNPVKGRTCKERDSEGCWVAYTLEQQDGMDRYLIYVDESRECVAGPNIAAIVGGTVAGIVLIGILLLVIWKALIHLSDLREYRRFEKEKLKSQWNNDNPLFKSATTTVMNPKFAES
HIV Rev-RRE inh – disrupts HIV-1 Rev binding to RRE RNA; P05866; Rev peptide-RRE RNA binding, FRET; inhibition, % at 8 µM; 0.79% of 97,000 active;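 active = inhibition above the screen-wide mean plus 3 SD, cut at about 35% in these data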;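 also: 0% = median DMSO wells and 100% = median Neomycin B control wells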
Target sequence (P05866 whole entry, looked up): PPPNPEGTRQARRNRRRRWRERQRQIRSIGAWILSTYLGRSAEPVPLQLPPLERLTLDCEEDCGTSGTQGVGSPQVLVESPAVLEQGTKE
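Test system: Cy5-tagged RRE RNA duplex with fluorescein-tagged Rev peptide; Probe or stimulus: labelled Rev peptide; Schedule: 5 min preincubation and 15 min binding, 25 °C; Signal: FRET fluorescence readout; Evaluation: % inhibition from 671/540 nm acceptor-to-donor ratio, scaled between controls; Control set: DMSO and neomycin B.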
Mac1 fbg inh – inhibitors of human CD11b/CD18 binding to fibrinogen | P05107+P11215 | K562 CD11b/CD18 adhesion to fibrinogen, ATPlite luminescence; Mn2+ added to activate the integrin | inhibition, % at 10 µM | 0.54% of 93,000 active;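 active = primary inhibition of 50% or more at 10 µM, then 40% or more on retest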; also: some results filed as inactive read as strong as hits
PLK1 PBD inh – blocks phosphopeptide binding to human Plk1 polo box domain | 0.13% of 97,000 active | AID 693 | Plk1 PBD phosphopeptide binding, fluorescence polarization | P53350 | inhibition, %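 (tested at about 20 µM)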; in the data active = inhibition above about 34%, passing the limit was not always enough
ERa SRC1 pot – ER-alpha (human) coactivator binding potentiation. P03372. TR-FRET ERalpha-LBD/SRC-Cy5 coactivator binding, 2 h; 100 = basal binding, no effect. coactivator binding (% of control), % at 25.6 µM. 1.3% of 86,000 active; in the data active = activity above about 200%;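 also: binding measured in presence of low estradiol as agonist stimulus; 0% = peptide alone without receptor and 100% = receptor with peptide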
ERa coact inh – blocks coactivator binding to human estrogen receptor alpha; inhibition, % at 25.6 µM; TR-FRET ER-alpha LBD / SRC-1 peptide, estradiol-bound; P03372; AID 629; 1.7% of 86,000 active; in the data active = inhibition above about 50%;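 also: 0% = receptor plus peptide control and 100% = peptide only without receptor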
ERb SRC1 inh – ER-beta (human) coactivator binding inhibition; AID 633; Q92731; inhibition, % at 25.6 µM; TR-FRET ER-beta LBD / SRC1-Cy5 peptide binding; receptor agonist-loaded with 1 µM estradiol; 1.3% of 86,000 active;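 active = compounds whose percent inhibition of the receptor-coactivator binding signal exceeds about 50% in the single-dose screen, limit read from the data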;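 also: 0% = receptor plus peptide wells without compound and 100% = peptide-only wells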
PLK1 kinase inh – PLK1 (human) kinase inhibition; P53350; recombinant PLK1 kinase, TR-FRET peptide phosphorylation; inhibition, % at 10 µM; 0.53% of 97,000 active; AID 619;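 active = inhibition of 50% or more in the single-concentration screen; inactive = inhibition below 50%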;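 also: 0% = DMSO max control and 100% = H-89 dihydrochloride min control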
Starred values were filed as active, the others as inactive; [ ] = another dose, or the depositor's remark. Some of the compounds tested. The share of hits here may be higher or lower than overall.

`COc1ccc(C(=O)CSc2nnc(-c3cccs3)n2-c2ccccc2)cc1` gave CD11b adhes enh 7.0, HIV Rev-RRE inh 1.0, Mac1 fbg inh 6.0, PLK1 PBD inh -13.8, ERa SRC1 pot 107.8[fluorescence artefact?], ERa coact inh 17.6, ERb SRC1 inh 10.9[fluorescence artefact?] and PLK1 kinase inh -13.8.
O=C1Nc2c(c(=O)[nH]c(=O)n2-c2ccccc2)C1(Nc1ncccn1)C(F)(F)F (stereo not drawn) was read as CD11b adhes enh 0.9, HIV Rev-RRE inh 4.7, Mac1 fbg inh -2.5, PLK1 PBD inh -5.0, ERa SRC1 pot 103.9, ERa coact inh -2.2, ERb SRC1 inh -0.5 and PLK1 kinase inh -6.3.
For CCOc1ccc(-c2nc(N)ncc2-c2ccccc2)c(O)c1 the results were CD11b adhes enh 1.2, HIV Rev-RRE inh 18.4, Mac1 fbg inh -9.4, PLK1 PBD inh -17.8, ERa SRC1 pot 56.8[fluorescence artefact?], ERa coact inh -3.2, ERb SRC1 inh 3.3 and PLK1 kinase inh -17.4.
`O=C(NNC(=O)c1ccccc1-n1cccc1)c1ccccc1` gave HIV Rev-RRE inh 1.8, PLK1 PBD inh -15.1 and PLK1 kinase inh -12.1.
COc1ccc(-c2csc(N3CCC(c4ccccc4)C3)n2)cc1 (stereo not drawn) was read as HIV Rev-RRE inh 2.7, PLK1 PBD inh -4.4 and PLK1 kinase inh -6.5.
OC(CSc1ccccc1Cl)CN1CCN(c2ccccc2F)CC1 (stereo not drawn) was read as CD11b adhes enh -2.6, HIV Rev-RRE inh 17.7, Mac1 fbg inh 9.3, PLK1 PBD inh -21.7 and PLK1 kinase inh -5.7.
For O=C(CSc1nnc(Cn2c(=O)sc3ccccc32)n1-c1ccccc1)N1CCOCC1 the results were CD11b adhes enh -0.4, HIV Rev-RRE inh 5.6, Mac1 fbg inh 1.1, PLK1 PBD inh -6.9, ERa SRC1 pot 107.3, ERa coact inh -1.3[fluorescence artefact?], ERb SRC1 inh -16.2 and PLK1 kinase inh -1.8.
`FC(F)(F)c1cnc(-c2cnc3c(-c4ccc(Cl)cc4)cnn3c2)c(Cl)c1` gave CD11b adhes enh 3.1, HIV Rev-RRE inh 3.3, Mac1 fbg inh 5.4, PLK1 PBD inh -0.9 and PLK1 kinase inh -9.2.
For CC1(C)CC(=O)C=C(N=CC2=C(O)CC(C)(C)CC2=O)C1 the results were CD11b adhes enh -5.8, HIV Rev-RRE inh -0.2, Mac1 fbg inh 5.1, PLK1 PBD inh 5.3, ERa SRC1 pot 124.1, ERa coact inh 0.1, ERb SRC1 inh -0.9 and PLK1 kinase inh -3.5.
`CC(=O)Cc1nsc(NC(=O)c2ccc(-c3cccc(C(F)(F)F)c3)o2)n1` gave CD11b adhes enh 0.2, HIV Rev-RRE inh -6.8, Mac1 fbg inh 1.2, PLK1 PBD inh -48.2, ERa SRC1 pot 107.5, ERa coact inh -0.8, ERb SRC1 inh 0.0 and PLK1 kinase inh -7.8.
For CCOC(=O)c1c(NC(=O)Cn2cnc([N+](=O)[O-])n2)sc2c1CCC(C)C2 (stereo not drawn) the results were HIV Rev-RRE inh 11.9, PLK1 PBD inh 1.8 and PLK1 kinase inh -8.6.
Screening CCOc1ccccc1-c1n[nH]c(=S)o1 returned CD11b adhes enh -0.8, HIV Rev-RRE inh 4.3, Mac1 fbg inh -5.5, PLK1 PBD inh -10.8, ERa SRC1 pot 96.2, ERa coact inh 2.2, ERb SRC1 inh -6.7 and PLK1 kinase inh -8.2.
CC(=O)Nc1ccc(S(=O)(=O)NNC(=O)COc2cccc(C)c2)cc1 was read as HIV Rev-RRE inh 3.6, PLK1 PBD inh 13.1 and PLK1 kinase inh -5.9.
`Cc1ccc(C2=Nc3ccccc3N=C(c3ccco3)C2)c(O)c1` gave HIV Rev-RRE inh -4.0, PLK1 PBD inh 34.8 and PLK1 kinase inh -8.8.
For CS(=O)(=O)N(CC(=O)N/N=C/c1cccc2c1OCCO2)c1ccccc1Br the results were HIV Rev-RRE inh 8.0, PLK1 PBD inh -24.5 and PLK1 kinase inh -2.4.
Screening N#Cc1cnn2c1nc(N1CCCCC1)c1ccccc12 returned HIV Rev-RRE inh 0.7, PLK1 PBD inh -18.3 and PLK1 kinase inh -12.5.
Screening Cc1cc(-c2csc(N)n2)c(C)n1C returned CD11b adhes enh 1.9, HIV Rev-RRE inh 10.6, Mac1 fbg inh -28.1, PLK1 PBD inh -2.6, ERa SRC1 pot 109.3, ERa coact inh 71.0*[fluorescence artefact?], ERb SRC1 inh 83.3*[fluorescence artefact?] and PLK1 kinase inh -4.3.
COc1cc2c(cc1OC)CN(C(=O)CCCOc1ccc(Cl)cc1Cl)CC2 was read as CD11b adhes enh -0.8, HIV Rev-RRE inh 9.7, Mac1 fbg inh 23.3, PLK1 PBD inh 3.1, ERa SRC1 pot 112.2, ERa coact inh -6.5, ERb SRC1 inh -10.4 and PLK1 kinase inh 3.1.
For Cc1sc(NC(=O)c2cccs2)c(C(N)=O)c1C the results were CD11b adhes enh 0.3, HIV Rev-RRE inh 8.0, Mac1 fbg inh 5.0, PLK1 PBD inh -1.3, ERa SRC1 pot 116.0, ERa coact inh -0.5, ERb SRC1 inh 2.8[fluorescence artefact?] and PLK1 kinase inh -2.9.
Screening CC(C)C(C(=O)N1CCOCC1)N1C(=O)c2ccccc2C1=O (stereo not drawn) returned CD11b adhes enh 5.9, HIV Rev-RRE inh 2.7, Mac1 fbg inh -12.0, PLK1 PBD inh 14.9, ERa SRC1 pot 133.6, ERa coact inh -0.2, ERb SRC1 inh -0.5 and PLK1 kinase inh -2.8.
For CCOC(=O)c1c(NS(C)(=O)=O)sc2c1CCC(C)C2 (stereo not drawn) the results were CD11b adhes enh -0.4, HIV Rev-RRE inh 2.2, Mac1 fbg inh -5.4, PLK1 PBD inh 11.3, ERa SRC1 pot 105.3, ERa coact inh 1.3, ERb SRC1 inh -2.3[fluorescence artefact?] and PLK1 kinase inh -9.1.
For Cn1c(C(=O)NCCC2=CCCCC2)cc2c(=O)n3ccccc3nc21 the results were CD11b adhes enh -4.0, HIV Rev-RRE inh 2.3, Mac1 fbg inh -3.5, PLK1 PBD inh 2.5, ERa SRC1 pot 183.2, ERa coact inh 9.6, ERb SRC1 inh -0.2 and PLK1 kinase inh -16.9.
Screening CC1(C)CC(=O)C2=C(C1)c1c(ccc3ccccc13)NC2c1ccc(Br)o1 (stereo not drawn) returned CD11b adhes enh -5.8, HIV Rev-RRE inh 12.6, Mac1 fbg inh 7.1, PLK1 PBD inh -8.5, ERa SRC1 pot 89.4, ERa coact inh 15.0, ERb SRC1 inh 10.2 and PLK1 kinase inh -4.7.
CCCCOc1ccc(-c2nnc(-c3ccco3)o2)cc1 was read as CD11b adhes enh 6.1, HIV Rev-RRE inh 2.1, Mac1 fbg inh -7.1, PLK1 PBD inh -13.1, ERa SRC1 pot 97.1, ERa coact inh -22.4, ERb SRC1 inh -24.2 and PLK1 kinase inh -12.2.
Screening CN(C)S(=O)(=O)c1cccc(-c2cn3ccccc3n2)c1 returned CD11b adhes enh -4.6, HIV Rev-RRE inh 0.8, Mac1 fbg inh 3.5, PLK1 PBD inh -17.9, ERa SRC1 pot 115.8, ERa coact inh 5.7, ERb SRC1 inh -1.8[fluorescence artefact?] and PLK1 kinase inh 4.7.
Screening CCOC(=O)c1sc(NC(=O)CSc2nc3c(cc2C#N)CCC3)c(C#N)c1C returned HIV Rev-RRE inh 5.6, PLK1 PBD inh -7.4, ERa SRC1 pot 111.0, ERa coact inh -0.7, ERb SRC1 inh 10.7 and PLK1 kinase inh -11.5.
Screening Cc1cc(O)c(NC(=O)c2ccc(Br)o2)cc1C returned HIV Rev-RRE inh 1.3, PLK1 PBD inh 18.4, ERa SRC1 pot 81.9[fluorescence artefact?], ERa coact inh 8.4, ERb SRC1 inh 10.8 and PLK1 kinase inh -14.2.
Screening c1ccc2oc(SCc3nc4ccccc4s3)nc2c1 returned CD11b adhes enh -4.3, HIV Rev-RRE inh 7.4, Mac1 fbg inh 11.5, PLK1 PBD inh 8.7, ERa SRC1 pot 110.4, ERa coact inh 0.4, ERb SRC1 inh -0.7 and PLK1 kinase inh 18.7.
`COCCCNC(=S)NCCCNc1nc2cc3c(cc2cc1C#N)OCO3` gave CD11b adhes enh -2.0, HIV Rev-RRE inh 4.7, Mac1 fbg inh -7.2, PLK1 PBD inh -37.9 and PLK1 kinase inh -2.6.
CCC(=O)N1C(C(=O)O)CSC1c1ccc(OC)cc1 (stereo not drawn) was read as CD11b adhes enh -2.3, HIV Rev-RRE inh 5.3, Mac1 fbg inh -25.5, PLK1 PBD inh -16.1, ERa SRC1 pot 114.2, ERa coact inh -2.7, ERb SRC1 inh -0.1 and PLK1 kinase inh -4.4.
`COc1cc2c(cc1OC)C(=O)CCS2` gave CD11b adhes enh -5.0, HIV Rev-RRE inh 7.0, Mac1 fbg inh 8.3, PLK1 PBD inh 0.7 and PLK1 kinase inh -13.7.
`Cc1ccc(-c2csc3nnc(SCC(=O)N4CCN(Cc5ccccc5)CC4)n23)cc1` gave CD11b adhes enh 7.1, HIV Rev-RRE inh -4.1, Mac1 fbg inh 2.1, PLK1 PBD inh -1.2, ERa SRC1 pot 107.8, ERa coact inh 8.8[fluorescence artefact?], ERb SRC1 inh -1.2 and PLK1 kinase inh -3.3.
For COC(=O)c1nnn(CC(=O)Nc2cccc(Cl)c2C)c1C(=O)OC the results were CD11b adhes enh -2.8, HIV Rev-RRE inh 1.4, Mac1 fbg inh -39.9, PLK1 PBD inh 1.4, ERa SRC1 pot 90.9, ERa coact inh -7.5, ERb SRC1 inh -0.8 and PLK1 kinase inh -35.5.
Screening O=C(CCn1nnc2ccccc2c1=O)N[C@H](C(=O)O)c1ccccc1 returned CD11b adhes enh -0.8, HIV Rev-RRE inh -0.8, Mac1 fbg inh 17.8, PLK1 PBD inh -4.3, ERa SRC1 pot 111.9, ERa coact inh -4.3, ERb SRC1 inh -1.0 and PLK1 kinase inh -0.9.
Screening CSCC[C@H](NC(=O)CCn1nnc2ccccc2c1=O)C(=O)O returned CD11b adhes enh 1.4, HIV Rev-RRE inh 6.4, Mac1 fbg inh -1.2, PLK1 PBD inh -24.4, ERa SRC1 pot 109.3, ERa coact inh -16.0, ERb SRC1 inh -8.1 and PLK1 kinase inh -0.6.
`CCCc1nc(-c2cc3ccc(C)cc3[nH]c2=O)no1` gave HIV Rev-RRE inh 1.2, PLK1 PBD inh -13.7, ERa SRC1 pot 90.0[fluorescence artefact?], ERa coact inh 22.1[fluorescence artefact?], ERb SRC1 inh 19.7 and PLK1 kinase inh -3.2.
For CCOc1ccc(-c2nc(N)ncc2Oc2ccccc2Br)c(O)c1 the results were CD11b adhes enh 1.6, HIV Rev-RRE inh 15.4, Mac1 fbg inh 4.4, PLK1 PBD inh 6.5, ERa SRC1 pot 174.8[fluorescence artefact?], ERa coact inh 25.1[fluorescence artefact?], ERb SRC1 inh 29.5[fluorescence artefact?] and PLK1 kinase inh -7.1.

Among those listed so far, these contain a COOH group:
CCC(=O)N1C(C(=O)O)CSC1c1ccc(OC)cc1 (stereo not drawn) was read as CD11b adhes enh -2.3, HIV Rev-RRE inh 5.3, Mac1 fbg inh -25.5, PLK1 PBD inh -16.1, ERa SRC1 pot 114.2, ERa coact inh -2.7, ERb SRC1 inh -0.1 and PLK1 kinase inh -4.4.
Screening O=C(CCn1nnc2ccccc2c1=O)N[C@H](C(=O)O)c1ccccc1 returned CD11b adhes enh -0.8, HIV Rev-RRE inh -0.8, Mac1 fbg inh 17.8, PLK1 PBD inh -4.3, ERa SRC1 pot 111.9, ERa coact inh -4.3, ERb SRC1 inh -1.0 and PLK1 kinase inh -0.9.
Screening CSCC[C@H](NC(=O)CCn1nnc2ccccc2c1=O)C(=O)O returned CD11b adhes enh 1.4, HIV Rev-RRE inh 6.4, Mac1 fbg inh -1.2, PLK1 PBD inh -24.4, ERa SRC1 pot 109.3, ERa coact inh -16.0, ERb SRC1 inh -8.1 and PLK1 kinase inh -0.6.
